miR-21 FLuc – raises the signal of a miR-21 reporter. HeLa miR-21 FLuc reporter, luciferase, 48 h. Potency, µM (top dose mostly 38.3 µM), for the others: at the top dose reporter change, positive = more light. 340,000 tested, under 10 active; active = well fitted rising curve with a large enough effect; inconclusive = small, poorly fitted or top-dose-only effect; inactive = no such curve, though single readings can be large or run the other way;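 further: % of control where 0% means no effect; miR-21 action dims this reporter so a rising signal means less miR-21 action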
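Luminescence from a firefly luciferase reporter carrying a miR-21 binding site downstream, stably expressed under a CMV promoter in HeLa cells that make miR-21 endogenously, reports miRNA modulation after 48 h compound exposure up to approximately 40uM final.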
* = called active by the depositor; u = inconclusive. Only part of the results is shown (hit frequency here may not be typical).

SMILES	miR-21 FLuc
COc1ccc(-c2n[nH]c3c2C(c2ccc(Cl)cc2Cl)NC3=O)cc1 (stereo not drawn)	18.5%
CC(CCc1ccccc1)NC(=O)Cn1ncc2c3ccccc3n(Cc3cccc(Cl)c3)c2c1=O (stereo not drawn)	-4.0%
CCNc1c(NC(=O)c2cc(OCC)c(OCC)c(OCC)c2)c(=O)oc2ccccc12	14.9%
O=C(CSc1cn(CC(=O)N2CCOCC2)c2ccccc12)Nc1ccccc1F	-1.9%
COc1ccc(N2C(=O)CSC23C(=O)N(Cc2cccc(F)c2)c2ccccc23)cc1Cl (stereo not drawn)	7.0%
Cc1cccc(Cc2c(C)nc3nc(SCc4ccccc4Cl)nn3c2C)c1	-9.0%
Cc1cc(C)cc(NC(=O)C2CCCN(c3cnccn3)C2)c1 (stereo not drawn)	-1.4%
O=C(c1ccc2c(c1)OCO2)c1cn(Cc2ccc(Cl)cc2)c2ccc(F)cc2c1=O	18.6%
CCOc1ccc(S(=O)(=O)N2CCC(N3CCN(Cc4ccc(F)cc4)C(=O)C3=O)CC2)cc1	-1.5%
COc1ccc(CCNC(=O)Cn2ncc3c(=O)oc4ccccc4c32)c(OC)c1	0.3%
Cc1cccc(N(CC(=O)Nc2ccccc2C(F)(F)F)S(=O)(=O)c2ccccc2)c1C	-3.5%
CCCNC(=O)CN1C(=O)c2cccnc2Sc2ccccc21	-0.2%
Cc1ccc(Cl)cc1N1CCN(S(=O)(=O)c2cc(Br)cc3c2N(C(=O)C2CC2)CC3)CC1	8.5%
CCOc1ccc(-n2c(=O)c3c4c(sc3n(Cc3cccc(C)c3)c2=O)CCCC4)cc1	4.9%
CCOC(=O)c1c(C)oc2nc(C)nc(NCc3ccc(OC)cc3)c12	-29.3%
COc1cccc(Cn2c(SCc3ccc(C(=O)N4CCCCC4)cc3)nc3ccncc32)c1	15.7%
CCC(C(=O)N1CCN(c2cc(Cl)ccc2C)CC1)n1nc(C)c2sc3ccccc3c2c1=O (stereo not drawn)	-14.8%
CCOc1ccc(Nc2sc(C(=O)c3ccc4c(c3)OCO4)c(N)c2S(=O)(=O)c2ccc(C)cc2)cc1	-2.7%
COc1ccc(CCNC(=O)c2cc3sccc3n2Cc2ccc(Cl)cc2)cc1OC	15.7%
CCOc1ccc(OCC(=O)NCCS(=O)(=O)N2CCN(c3cccc(Cl)c3)CC2)cc1	0.8%
COCCn1c(C)cc(O)c(C(c2cccc(F)c2)N2CCN(c3ccccc3)CC2)c1=O (stereo not drawn)	-0.8%
CC1=C(C(N)=O)C(c2ccc(C)cc2)n2nc(SCc3ccccc3F)nc2N1 (stereo not drawn)	5.0%
CC(C)(C)OC(=O)N1CCC(c2c(C(=O)N3CCCCC3)cnn2-c2ccccc2Cl)CC1	6.6%
Cc1cc(F)ccc1NC(=O)C1CCCN(C(=O)c2cnn(-c3ccccc3)c2-n2cccc2)C1 (stereo not drawn)	27.7%
CC1=C(C(=O)Nc2ccc(C)cc2C)C(c2ccc(O)cc2)n2nc(SCC(=O)c3ccc(C)cc3)nc2N1 (stereo not drawn)	-2.5%
Cc1ccc(C)c(N2CCN(C(=O)C(CC(C)C)NS(=O)(=O)c3ccc4nc(C)sc4c3)CC2)c1 (stereo not drawn)	u
Cc1ccc(C(=O)N2CCN(c3ccccc3F)CC2)cc1NC(=O)c1nsc2ccccc12	15.8%
O=c1n(Cc2ccc(Cl)cc2)nc2n1-c1ccccc1OC2	-4.1%
CCOC(=O)c1cc(OC(=O)c2ccc(Cl)cc2)n(-c2ccccc2)n1	-1.5%
CCc1nnc2c(N3CCN(c4cccc(C(F)(F)F)c4)CC3)nc3ccccc3n12	-3.7%
COc1ccc(NC(=O)CN2C(=O)CSc3ccc(S(=O)(=O)N(C)C)cc32)cc1OC	-3.1%
COc1ccc(NC(=O)C(C)N(c2ccccc2)S(C)(=O)=O)cc1 (stereo not drawn)	-2.4%
CCCC(=O)N(c1ccc2oc(-c3ccccc3)c(C(=O)OCC)c2c1)S(=O)(=O)c1ccc(C)cc1	-2.9%
Cc1ccc(-n2c3c(cc(C(=O)Nc4ccccc4C(N)=O)c2=O)C(=O)CC(C)(C)C3)cc1	0.9%
CCc1ccc(-c2nc(SCC(=O)NCCOC)c(-c3ccc(C)cc3)[nH]2)cc1	4.5%
O=C(NCc1ccccc1)C1CCN(c2ncnc3c2nc2n3CCCCC2)CC1	-2.1%
CCCC(=O)Nc1nnc(S(=O)(=O)N(C)Cc2ccc(Cl)cc2)s1	-1.3%
CCc1ccc(-c2nc(CN3CCC(C(=O)NCCc4ccc(C)cc4)CC3)c(C)o2)cc1	-1.2%
Cc1cc2c(cc1C)C(c1cccc(OC(C)C)c1)CC(=O)N2 (stereo not drawn)	23.9%
COc1ccc(NC(=O)c2ccc3nc(CCc4ccccc4)oc3c2)c(OC)c1	-0.6%
COc1ccc(C2C(C(=O)Nc3ccccc3)=C(C)Nc3nc(SCC(=O)c4ccc(C)cc4)nn32)cc1 (stereo not drawn)	4.1%
COCCCNC(=O)C1CCN(Cc2cc3ccccc3n2Cc2cccc(C)c2)CC1	17.7%
CCNS(=O)(=O)c1cc(-c2nnc(Nc3cccc(C(F)(F)F)c3)c3ccccc23)ccc1C	-0.9%
N#Cc1ccc(C(=O)Nc2ccc3c(c2)N(C2CCCC2)C(=O)c2ccccc2S3)cc1	u
CCOc1ccc(S(=O)(=O)c2cn(Cc3cc(C)ccc3C)c3ccc(OCC)cc3c2=O)cc1	0.2%

Structures above with a thiophene ring, fused or not (4):
SMILES	miR-21 FLuc
CCOc1ccc(-n2c(=O)c3c4c(sc3n(Cc3cccc(C)c3)c2=O)CCCC4)cc1	4.9%
CCC(C(=O)N1CCN(c2cc(Cl)ccc2C)CC1)n1nc(C)c2sc3ccccc3c2c1=O (stereo not drawn)	-14.8%
CCOc1ccc(Nc2sc(C(=O)c3ccc4c(c3)OCO4)c(N)c2S(=O)(=O)c2ccc(C)cc2)cc1	-2.7%
COc1ccc(CCNC(=O)c2cc3sccc3n2Cc2ccc(Cl)cc2)cc1OC	15.7%

More records
SMILES	miR-21 FLuc
Cc1ccc(C)c(-c2[nH]c3c(c2-c2c(-n4cccc4)n(C)c(=O)[nH]c2=O)c(=O)[nH]c(=O)n3C)c1	1.5%
Cc1c(C)n(Cc2ccccc2)c2ccc(C(=O)NCc3ccc(OC(C)C)cc3)cc12	10.3%
CCOc1ccccc1NC(=O)N1CCC(N2CCN(Cc3ccccc3)C(=O)C2=O)CC1	-3.7%
Cc1ccc2nc(Cl)c3cc(C(=O)N4CCCC(C)C4)sc3c2c1 (stereo not drawn)	-11.6%
CCc1nn(CC(=O)NCc2ccccc2)c(=O)c2cccn12	-24.9%
CCc1ccc(OCC(=O)Nc2cc(-c3nc4cc(C)ccc4o3)ccc2C)cc1	-31.0%
Cc1c(C(=O)N(Cc2cccc(Cl)c2)Cc2ccco2)oc2ccccc12	-1.1%
O=C(COc1ccccc1F)Nc1nnc(S(=O)(=O)N2CCCCCC2)s1	-24.4%
Cc1ccc(CCNC(=O)C(NS(=O)(=O)c2ccc3c(c2)oc(=O)n3C)C(C)C)cc1 (stereo not drawn)	0.2%
Cc1cccc(C)c1NS(=O)(=O)c1ccc(NS(=O)(=O)c2ccc3c(c2)OCCO3)cc1	u
CCCNC(=O)N1CCN(S(=O)(=O)c2ccc3c(ccn3C)c2)CC1	-0.9%
CCOc1ccccc1CNC(=O)CCc1c(C)nn(-c2ccc(N3CCCC3)nn2)c1C	1.3%
CCn1cc(C(=O)N2CCN(c3cccc(C)c3C)CC2)c2cc(OC)c(OC)cc2c1=O	u
COc1ccccc1NC(=O)Cn1c(=O)n(Cc2nc(-c3ccccc3)no2)c(=O)c2ccccc21	-1.1%
CCOCCOC(=O)c1ccc2c(c1)N(Cc1ccccc1C#N)C(=O)c1ccccc1S2(=O)=O	3.9%

3 compounds already listed, ordered by their value in miR-21 FLuc, highest first:
SMILES	miR-21 FLuc
CCOCCOC(=O)c1ccc2c(c1)N(Cc1ccccc1C#N)C(=O)c1ccccc1S2(=O)=O	3.9%
CCCNC(=O)N1CCN(S(=O)(=O)c2ccc3c(ccn3C)c2)CC1	-0.9%
O=C(COc1ccccc1F)Nc1nnc(S(=O)(=O)N2CCCCCC2)s1	-24.4%

New compounds follow:
SMILES	miR-21 FLuc
CCc1ccc2c(c1)c(=O)c(C(=O)c1ccc(C)cc1)cn2CC(=O)Nc1ccc2c(c1)OCCO2	-1.6%
Cc1ccccc1NC(=O)c1ccc(F)c(S(=O)(=O)NC2CCCC2)c1	4.1%
COc1ccc(CNc2ncnc3c2c(-c2ccccc2)cn3-c2ccc(C)c(Cl)c2)cc1	3.0%
CCC1CN(C(=O)C2CCN(S(=O)(=O)c3c(C)noc3/C=C/c3ccccc3F)CC2)c2cc(C)ccc2O1 (stereo not drawn)	-6.8%
CC(=O)c1ccc(N2CCN(C(=O)c3cc(S(=O)(=O)N4CCCCCC4)cn3C)CC2)cc1	-0.8%
COc1ccccc1CNC(=O)c1cc(S(=O)(=O)N2CCCC(C)C2)cn1C (stereo not drawn)	2.4%
COc1ccc(-c2cc(=O)n3[nH]cnc3n2)cc1	7.3%
Cc1cccc(OC(=O)c2snnc2C)c1	-2.3%
Cc1c(CCNC(=O)Cc2ccc(F)cc2)sc2nc(-c3ccc(F)cc3)nn12	3.6%
Cc1ccccc1CCNC(=O)c1ccc2c(c1)c(C)c(C)n2C	-44.7%
Cc1ccc(SCCNC(=O)CN(c2cccc(C)c2C)S(C)(=O)=O)cc1	23.9%
Cc1cccn2c3c(c(=O)nc12)C(c1ccc(F)cc1)CC(=O)N3 (stereo not drawn)	-7.1%
CN(Cc1ccccc1)c1nc(-c2ccc(F)cc2)cc(C(F)(F)F)n1	12.5%
CC1=C(c2ccc(C)c(C)c2)S(=O)(=O)N=C1N1CCN(c2cccc(C)c2)C(C)C1 (stereo not drawn)	4.4%
CCOC(=O)c1c(NC(=O)/C=C/c2ccc(OC)c(OC)c2)sc(C(C)=O)c1C	-8.9%
Cc1ccc(CN2C(=O)C3(c4ccccc42)N(c2cccc(F)c2)C(=O)CS3(=O)=O)cc1 (stereo not drawn)	6.8%
CCc1ccc(OCC2c3cc(OC)c(OC)cc3CCN2C(=O)Cc2ccc(OC)c(OC)c2)cc1 (stereo not drawn)	2.2%
CC(=O)c1ccc(N2CCN(C(=O)c3cc4ccc5cccnc5c4[nH]3)CC2)cc1	u
COc1ccc(NC(=O)Cc2ccc(NC(=O)N3CCCCc4ccccc43)cc2)c(OC)c1	4.9%
Cc1ccc(OCc2ccc(-c3nc(C#N)c(NCc4ccccc4Cl)o3)o2)cc1	u
COc1ccc(NC(=O)Cn2cc(S(=O)(=O)Cc3ccc(F)cc3)c3ccccc32)cc1OC	11.3%
O=C(CN1C(=O)c2cccnc2Oc2ccc(Cl)cc21)NCCCN1CCCCC1	3.4%
Cc1ccc2c(c1)C(c1ccccc1)N(C(=O)c1ccc(S(=O)(=O)N3CCCC3)cc1)CC(=O)N2 (stereo not drawn)	8.3%
O=C(CN1C(=O)COc2ccc(S(=O)(=O)N3CCCCCC3)cc21)NCc1ccc(Cl)cc1	20.0%
COc1ccc(N2CCN(C(=O)c3ccc4c(c3)N(Cc3cccc(Cl)c3)C(=O)c3ccccc3S4(=O)=O)CC2)cc1	0.1%
CCS(=O)(=O)c1ncc(Cl)c(C(=O)Nc2c(C(=O)Nc3cccc(C)c3)oc3ccccc23)n1	-2.6%
O=C(c1ccccc1Cl)N1CCN(CCc2ccccn2)CC1	1.8%
COc1cccc(-n2cc(C(=O)NCc3ccccc3OC)c3ccccc3c2=O)c1	-57.4%
Cc1ccc(C(=O)c2oc3ccccc3c2NC(=O)Cc2ccccc2)cc1	-14.6%
CCOc1ccc(NC(=O)CSC2=Nc3ccccc3C3=NC(CC(=O)NCc4ccco4)C(=O)N23)cc1 (stereo not drawn)	-27.7%

Retrieved by structure from the list above (4):
SMILES	miR-21 FLuc
O=C(c1ccccc1Cl)N1CCN(CCc2ccccn2)CC1	1.8%
O=C(CN1C(=O)COc2ccc(S(=O)(=O)N3CCCCCC3)cc21)NCc1ccc(Cl)cc1	20.0%
Cc1ccc(OCc2ccc(-c3nc(C#N)c(NCc4ccccc4Cl)o3)o2)cc1	u
Cc1ccc(CN2C(=O)C3(c4ccccc42)N(c2cccc(F)c2)C(=O)CS3(=O)=O)cc1 (stereo not drawn)	6.8%

(continued)
SMILES	miR-21 FLuc
CCOc1ccc(Nc2nc(-c3cccc(Cl)c3)c3c(n2)-c2ccccc2OC3)cc1	9.0%
Cc1ccc(C)c(NC(=O)C(C)N(c2ccccc2)S(C)(=O)=O)c1 (stereo not drawn)	-9.9%
Cc1ccc(-c2cc3c(n2-c2ccc(F)cc2)CC(C)(C)CC3=O)cc1	-0.4%
Cc1ccccc1NS(=O)(=O)c1ccc2[nH]cc(C(=O)NC(C)c3ccccc3)c(=O)c2c1 (stereo not drawn)	13.4%
O=C(CSc1nnc(-c2ccccc2)c(-c2ccccc2)n1)NCCc1ccccc1	13.8%
Cc1ccc(Sc2ccc(N3CCCC(C(=O)Nc4ccc(F)cc4)C3)nn2)cc1 (stereo not drawn)	14.2%
O=C(CSc1nc(=O)n(CCN2CCOCC2)c2c1CCC2)Nc1cccc(Cl)c1	-0.3%
Cc1cc(C)c(NC(=O)Cn2nnc(S(=O)(=O)c3ccc(C)c(C)c3)c2N)c(C)c1	-6.9%
COc1ccc(C2C(=O)N(C3CCCCCC3)CC(=O)N2Cc2ccccc2)cc1 (stereo not drawn)	-0.3%
Cc1cn2c(=O)cc(COC(=O)c3ccc(NC(=O)COc4ccccc4C)cc3)nc2s1	-9.2%
COc1ccc(OC)c(NC(=O)N2CCC(N3CCN(Cc4ccc(F)cc4)C(=O)C3=O)CC2)c1	8.1%
Cc1cccc(-c2nc(S(=O)(=O)c3ccc(Cl)cc3)c(N3CCCCCC3)o2)c1	9.5%
CCCCCN1C(C(=O)c2ccccc2)=C(NC(=O)c2ccc(OC)c(OC)c2)c2ccccc2S1(=O)=O	29.6%
CC(=O)N1c2ccc(S(=O)(=O)N3CCCCCC3)cc2CC1C(=O)NCc1ccccc1F (stereo not drawn)	-4.7%
O=C(Cc1ccc(F)cc1)NCc1ccc2c(c1)CCN2C(=O)c1ccc(F)cc1	28.1%
Cn1nc(-c2ccccc2F)c2cc(C(=O)N3CCN(c4ccccc4F)CC3)sc21	u
